ClpP mod – qHTS Assay for Activators of ClpP; 340,000 compounds, 1.9% hits; ATP-dependent Clp protease proteolytic subunit (Bacillus subtilis (strain 168)), P80244; Potency, µM (titrated, usually from 57.5 µM), without a hit: at the highest dose activity change, negative = active; purified B. subtilis ClpP, FRET peptide cleavage, 20 min; active = well fitted falling curve with a large enough effect; inconclusive = small, poorly fitted or top-dose-only effect; inactive = no such curve, though single readings can be large or run the other way; further: the source files actives as falling curves though it sought activators and does not explain the sign; nearly all actives have a fitted effect of over 65% in size; many hits overshoot -100%
Target sequence (P80244 whole entry, looked up): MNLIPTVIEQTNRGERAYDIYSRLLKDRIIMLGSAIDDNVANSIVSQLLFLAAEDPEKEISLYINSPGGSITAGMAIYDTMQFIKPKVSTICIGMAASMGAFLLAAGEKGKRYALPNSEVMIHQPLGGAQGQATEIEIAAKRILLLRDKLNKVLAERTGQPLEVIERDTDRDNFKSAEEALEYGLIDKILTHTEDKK
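Buffer: 100 mM Tris/HCl pH8, 100 mM KCl, 0.05% low protease BSA, 2.5% glycerol, 0.01% Tween-20. ClpP 10 microg/mL final; 20 min RT; delta FRET normalized to ADEP and DMSO controls.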
* marks the source's active call; other numbers are inactive results; ? = inconclusive. Potency means the concentration at half of the fitted maximal effect. Only part of the results is shown (hit frequency here may not be typical).

Structure,ClpP mod
Cc1ccc(C(=O)NC2(C(F)(F)F)C(=O)Nc3c2c(=O)[nH]c(=O)n3CCc2ccccc2)cc1 (centres undefined),-1.8%
CCCCNC(=O)c1nc(-c2ccccc2)oc1-c1ccc(Cl)cc1,4.3%
CC1CCN(S(=O)(=O)c2cn(CC(=O)Nc3ccc(F)c(Cl)c3)c(=O)c3ccccc23)CC1,-13%
O=C1NC[C@@H](CCCCN2C[C@H](Cc3ccc(O)cc3)N(CC3CCCCC3)C(=O)C2=O)N(CC2CCCCC2)C1=O,2.0%
CCC(CC)C(=O)Nc1cc(-c2cccc(C)c2)nn1-c1ccccc1,-1.1%
Cc1cccc(CN2C(=O)c3ccccc3S(=O)(=O)c3ccc(C(=O)OCC4CCCO4)cc32)c1 (centres undefined),-0.8%
CCOC(=O)c1c(C)[nH]c(C)c1S(=O)(=O)NCC(=O)Nc1cccc(C#N)c1,-3.1%
COc1ccc(S(=O)(=O)N2CCN(Cc3nc4ccc(C)cc4o3)CC2)cc1Cl,-4.1%
Cc1ccccc1CNC(=O)CSc1nnc(C)c2c(C)n(-c3ccccc3)nc12,-3.9%
COc1ccc(Cn2c(=O)c3ccccc3n3c(-c4ccc(C)cc4)nnc23)cc1,-12%
COCc1cc(C)nc2sc3c(c12)NC(c1ccc(O)cc1)N(c1ccc(OC)cc1)C3=O (centres undefined),-9.0%
Cc1c(-c2nc(-c3ccc4c(c3)OCO4)no2)nnn1-c1ccc(C(C)C)cc1,-11%
O=C(CCS(=O)(=O)c1cc2c3c(c1)CCN3C(=O)CC2)Nc1cccc(Br)c1,0.5%
CCC(=O)Nc1ccc2nc(SCC(=O)N3CCc4ccccc43)sc2c1,7.2%
COCCCNC(=O)c1ccc(Cn2c(SCc3cccc(C)c3)nc3cccnc32)cc1,?
Cc1ccc(S(=O)(=O)CCC(=O)N2CCN(c3nc4c(C)c(C)ccc4s3)CC2)cc1,0.0%
COc1ccc(-c2cc(C(F)(F)F)nc(SCC(=O)NCc3ccc(OC)c(OC)c3)n2)cc1,-8.0%
CC(=O)N1c2ccc(S(=O)(=O)N(C)CC(=O)N(Cc3ccccc3)C(C)C)cc2CC1C (centres undefined),-1.1%
COC(=O)c1ccccc1NC(=O)c1cc2c(-c3ccc(OC)c(OC)c3)nn(C)c2s1,4.4%
COc1ccc(OC)c(CNS(=O)(=O)c2c(C(=O)N3CCC(C)CC3)c(C)n(C)c2C)c1,-1.8%
COc1ccccc1N1CCN(C(=O)c2ccc(CS(=O)c3ccccc3C)o2)CC1 (centres undefined),-1.0%
COc1ccc(C2=Cc3ccccc3C(CC(=O)C3CC3)N2c2ccc(-c3cc(OC)c(OC)c(OC)c3)cc2)cc1 (centres undefined),5.2%
CCOc1ccccc1N1CCN(S(=O)(=O)c2ccc(C3CCCCC3)cc2)CC1,-1.7%
Cc1ccc2[nH]c(=O)c3cc(C(=O)N4CCN(c5ccccc5)CC4)sc3c2c1,-1.6%
O=C(CCc1ccccc1)N1CCc2c([nH]c3ccccc23)C1c1ccc(F)cc1 (centres undefined),-4.7%
COc1ccccc1NC(=O)CC(c1cc(OC)c(OC)c(OC)c1)N1Cc2ccccc2C1=O (centres undefined),1.3%
CC1=C(C(N)=O)C(c2cccc(Br)c2)n2nc(SCc3ccccc3)nc2N1 (centres undefined),-4.1%
Cc1ccc(NC(=O)COc2ccc(-c3nn(C)c(=O)c4ccccc34)cc2)cc1,-21%
Cc1ccc(S(=O)(=O)NCC(Nc2cccc(Cl)c2)c2ccccc2)cc1 (centres undefined),-4.9%
Cc1cccc(C)c1OCC(=O)N1CCC(c2nc3ccccc3o2)CC1,-0.5%

Reformatted with each value named: part of the list above
Cc1ccc(C(=O)NC2(C(F)(F)F)C(=O)Nc3c2c(=O)[nH]c(=O)n3CCc2ccccc2)cc1 (centres undefined)
- ClpP mod = -1.8%

CCCCNC(=O)c1nc(-c2ccccc2)oc1-c1ccc(Cl)cc1
- ClpP mod = 4.3%

CC1CCN(S(=O)(=O)c2cn(CC(=O)Nc3ccc(F)c(Cl)c3)c(=O)c3ccccc23)CC1
- ClpP mod = -13%

O=C1NC[C@@H](CCCCN2C[C@H](Cc3ccc(O)cc3)N(CC3CCCCC3)C(=O)C2=O)N(CC2CCCCC2)C1=O
- ClpP mod = 2.0%

Going on with the list:
Structure,ClpP mod
CCCCOc1ccc(C(=O)NCC2(N3CCN(C)CC3)CCCCC2)cc1,-1.1%
Cc1ccc(OCC(=O)OCc2cc(=O)n3nc(C4CCCCC4)sc3n2)cc1,-3.3%
COCCn1c(SCC(=O)c2ccccc2)nc2cc(C(=O)NC3CCCC3)ccc2c1=O,-1.8%
COc1cc2c(C(=O)N3CCN(c4cccc(C)c4)C(C)C3)cn(CC(C)C)c(=O)c2cc1OC (centres undefined),-11%
COc1ccc2oc(=O)c(-c3csc(-c4ccc(Br)cc4)n3)cc2c1,-29%
CCc1ccc(-c2nc(CSCC(=O)NCc3ccccc3OC)c(C)o2)cc1,-8.1%
CCN(c1ccccc1)S(=O)(=O)c1ccc2[nH]cc(C(=O)NC3CCCCC3)c(=O)c2c1,?
Cc1cc2oc(C(=O)Nc3sc4c(c3C(=O)NCc3ccco3)CCC4)cc(=O)c2cc1C,-0.5%
COc1ccc(-c2nnc(SCc3cc(=O)c4cc(C)cc(C)c4[nH]3)n2C)cc1,-3.9%
COc1ccccc1CNC(=O)c1cnc(SC)nc1C,1.0%
COc1ccc(-c2nnc(SCC(=O)Nc3ccc(F)cc3)s2)cc1,14µM*
Cc1ccc(CSc2ncc(Cl)c(C(=O)Nc3sc4c(c3C(N)=O)CCCC4)n2)cc1,1.7%
Cc1cccc(N2CCN(C(C(=O)NCc3ccccc3)c3ccco3)CC2)c1C (centres undefined),-1.9%
CC(C)(C)OC(=O)N1CCC(c2c(C(=O)NCc3ccco3)cnn2-c2ccccc2)CC1,-1.6%
CCOC(=O)c1ccc(CN(Cc2ccc(Br)cc2)S(=O)(=O)c2cccc(C(F)(F)F)c2)cc1,-3.3%
CCOC(=O)C1CCC(CN(Cc2ccc(OC)cc2)S(=O)(=O)c2ccc(C)cc2)CC1 (centres undefined),-4.1%
O=C(CC1N=C2c3ccccc3N=C(SCC(=O)Nc3cccc(Cl)c3)N2C1=O)NCc1cccs1 (centres undefined),-6.1%
CC1=Nc2cc(C(=O)NC3CCCCC3)ccc2Sc2ccc(Cl)cc21,-1.1%
CC1=C(C(=O)Nc2ccc(Cl)cc2)C(C(C)C)n2nc(SCc3cccc(C)c3)nc2N1 (centres undefined),-12%
CSc1ncc(Cl)c(C(=O)N(C)c2ccccc2)n1,0.5%
O=S(=O)(c1ccc2c(c1)CCC2)N1CCN(c2nc(-c3ccccc3)nc3ccccc23)CC1,1.1%
COc1cc(NC(=O)c2cc3c(s2)-c2ccccc2OC3)cc(OC)c1OC,-0.4%
CSc1ccc(CNC(=O)CCn2ccc3cc(S(=O)(=O)N4CCC(C)CC4)ccc32)cc1,-3.7%
COc1cc(OC)cc(C(=O)NCC(c2cccs2)S(=O)(=O)c2ccc(F)c(C)c2)c1 (centres undefined),-3.4%
Cc1nn(-c2ccccc2)c2c1N(CCCC(=O)NCc1ccc(OC(C)C)cc1)C(=O)CS2,-5.2%
O=C(O)c1[nH]n(-c2ccc(S(=O)(=O)O)cc2)c(=O)c1N=Nc1ccc(S(=O)(=O)O)cc1,0.6%
C=CCc1c(C)nc2nc(SCC(=O)Nc3cccc(Cl)c3)nn2c1C,0.1%
COc1cc(/C=C/c2nc(C#N)c(NC3CCCCC3)o2)cc(OC)c1OC,4.7%
CCc1cccc(C)c1NC(=O)Cn1ccn(-c2ccc(F)cc2)c(=O)c1=O,-2.2%
COc1ccc(C)cc1NC(=O)Cn1nc(N2CCN(c3ccccc3OC)CC2)ccc1=O,-13%

Part of the list above in order of formula weight, high to low:
Structure,ClpP mod
O=S(=O)(c1ccc2c(c1)CCC2)N1CCN(c2nc(-c3ccccc3)nc3ccccc23)CC1,1.1%
COc1cc(OC)cc(C(=O)NCC(c2cccs2)S(=O)(=O)c2ccc(F)c(C)c2)c1 (centres undefined),-3.4%
Cc1ccc(OCC(=O)OCc2cc(=O)n3nc(C4CCCCC4)sc3n2)cc1,-3.3%
CCCCOc1ccc(C(=O)NCC2(N3CCN(C)CC3)CCCCC2)cc1,-1.1%

(continued)
Structure,ClpP mod
COc1ccccc1-c1nc2c(c(SCc3cc(C)ccc3C)n1)Cc1c(CO)cnc(C)c1O2,-3.0%
CC(=O)Nc1nonc1-c1nnc(SCC(=O)Nc2ccc(C)c(Cl)c2)n1C,4.6%
O=C1CN(CCN2CC(=O)NC(=O)C2)CC(=O)N1,0.7%
COC(=O)c1ccc(NC(=O)CSc2ccc(-c3cccs3)nn2)cc1,-0.4%
Cc1ccc(-n2nc(C(=O)Nc3ccc(C)c(F)c3)c(=O)n(C)c2=O)cc1,1.6%
COc1cc(OC)cc(C(=O)Nc2cc(-c3nc4ccccc4[nH]3)ccc2C)c1,-16%
O=C1CN(C(=O)Cc2ccc(F)cc2)C(c2ccccc2)c2cc(Br)ccc2N1 (centres undefined),-2.7%
CC(O)c1nc2ccccc2[nH]1 (centres undefined),-0.8%
O=C(Nc1nc2n(n1)C(c1ccc(F)cc1)C=C(c1ccc(Cl)cc1)N2)c1ccco1 (centres undefined),?
Cc1ccc2scc(N3CCc4ccccc4C3)c(=O)c2c1,-8.9%
CC1(C)CC(=O)c2c(oc3c(Cl)cc(NS(=O)(=O)c4ccc(Br)cc4)cc23)C1,-0.6%
COc1ccc(C(=O)NCC[N+](C)(C)C)cc1,1.7%
Cc1cccc(Cn2c(SCc3ccc(C(=O)NCc4ccccc4F)cc3)nc3cccnc32)c1,4.0%
Cc1ccn2c(Nc3ccc4c(c3)OCO4)c(-c3ccc(N(C)C)cc3)nc2c1,4.3%
CNc1c(NC(=O)c2cc(OC)cc(OC)c2)c(=O)oc2ccccc12,-3.9%
COc1ccc(OC)c(CNC(=O)c2cnc3c(C)cccn3c2=O)c1,-4.6%
O=C(Nc1ccc(F)c(F)c1)C1CCCN1S(=O)(=O)c1cccc2nsnc12 (centres undefined),0.5%
COc1ccccc1NC(=O)C1=C(C)Nc2nc(SCc3ccccc3)nn2C1c1cccs1 (centres undefined),26%
CCSc1ncc(Cl)c(C(=O)Nc2c(C(=O)Nc3ccc(Cl)cc3)oc3ccccc23)n1,1.4%
CCc1ccc2nc(N(Cc3cccnc3)C(=O)c3ccc(C#N)cc3)sc2c1,-1.5%
Cc1c(NC(=O)C(C)(C)Oc2ccc(Cl)cc2)cccc1-c1nc2ncccc2o1,?
CCC(C)NC(=O)CCSc1nc(-c2ccc(OC)cc2)cc(C(F)(F)F)n1 (centres undefined),-15%
CSc1ccc(CCNC(=O)C2CCN(c3ncnc4c3nc3n4CCCCC3)CC2)cc1,-4.0%
Cc1c(C(=O)Nc2nc(-c3ccc(F)cc3)ns2)oc2ccc(Br)cc12,?
CCOc1ccccc1NC(=O)c1c(NC(=O)COc2ccc(Cl)cc2)sc2c1CCCCC2,-2.4%
O=C(Cc1ccc(F)cc1)NCCc1csc(-c2ccc(C(F)(F)F)cc2)n1,4.3%
Cc1cc(C)c(Cn2c3ccccc3c3cnn(CC(=O)N4CCCCC4)c(=O)c32)c(C)c1,-3.9%
CC(=O)N1c2ccc(S(=O)(=O)NCC3CCC(C(=O)NCCC(C)C)CC3)cc2CC1C (centres undefined),1.5%
COC(=O)c1cccc(Nc2nn3c(=O)c4cc5c(cc4nc3s2)OCO5)c1,-0.4%
Cc1ccccc1Cn1c(=O)n(CC2CCC(C(=O)N3CCOCC3)CC2)c(=O)c2sccc21 (centres undefined),-1.4%

More compounds.
Structure,ClpP mod
COc1ccc(SC2=C[C@@]3(O)CC[C@@H](O)[C@@](Sc4ccc(OC)cc4)(C2=O)[C@H]3O)cc1,0.6%
CCOc1ccc(Br)cc1C1NC(=O)c2c(sc3c2CCN(C)C3)N1 (centres undefined),4.1%
O=C(NCCN1CCOCC1)c1ccc(NC(=O)c2ccc(Br)o2)cc1,-1.5%
Cc1c(C)n(Cc2ccc(Cl)cc2)c2ccc(C(=O)NCCc3ccc(S(N)(=O)=O)cc3)cc12,14µM*
CCN(Cc1ccccc1)C(=O)Cn1c(=O)n(-c2ccccc2)c(=O)c2c1c1cc(C)ccc1n2C,4.4%
COc1cc(NC(=O)Cn2ccn(-c3cc(C)cc(C)c3)c(=O)c2=O)cc(OC)c1,-19%
CCC1=C(c2ccc(C)cc2)S(=O)(=O)N=C1N1CCC(C(=O)NCc2ccccc2Cl)CC1,-1.3%
CCc1cccc(NC(=O)Cn2cc(C(=O)c3ccncc3)c(=O)c3cc(C)c(C)cc32)c1,-21%
CC(=O)c1ccc(NC(=O)Cn2ncc3c4ccccc4n(Cc4ccccc4)c3c2=O)cc1,?
CCC(=O)N1c2ccccc2CC1C(=O)NCCCN1CCN(c2ccc(F)cc2)CC1 (centres undefined),1.3%
CCOc1ccccc1Nc1nc2c(S(=O)(=O)c3ccc(C)cc3)nnn2c2ccsc12,-18%
Cc1ccc(CCNC(=O)c2ccc(Cn3c(=O)c4cccn4c4cccnc43)cc2)cc1,5.0%
CCOC(=O)c1c(C)[nH]c(C)c1S(=O)(=O)N(C)CC(=O)N1CCN(c2ccccc2OC)CC1,-0.9%
CCOc1ccc(CNC(=O)CCn2c(=O)c3cccn3c3ccc(F)cc32)cc1,-25%
